# Bioassay records (PubChem BioAssay)
# MT1-MMP act inh = blockers of MT1-MMP proenzyme processing, primary screen, HT1080 RFP-PRO-GFP cells, GFP/RFP fluorescence; Matrix metalloproteinase-14 (Homo sapiens), P50281; GFP/RFP ratio fluorescence, overnight; percent of plate control window, DMSO zero; GFP/RFP ratio change, % at 20 µM; 0.061% of 360,000 active; AID 651647, 2012;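 active means GFP/RFP ratio change of at least 30% with cell ATP level not reduced by more than half and red fluorescence within 50% of control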; further: strong numbers were not always called active
#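 Assay system: HT1080 cells carrying an RFP-PRO-GFP reporter | Dosing: Single dose of 20 µM compound, 1% DMSO final | Incubation: Cells overnight before dosing, compound overnight, 37 °C, 5% CO2 | Evaluation: GFP/RFP fluorescence ratio | Control set: DMSO and RFP-L50D-GFP cell wells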
# eIF4H FP inh = human eIF4H binding inhibitors, primary screen, translation initiation inhibitor project, biochemical, uHTS, fluorescence polarization; eIF4H fluorescence polarization binding assay; inhibition, % at 35 µM; 0.94% of 290,000 active; AID 2012, 2009;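 active means 50% or more with normal probe brightness, or confirmed in later tests; inconclusive means above 50% with abnormal brightness, or retests that disagree; inactive means below 50% or failed in later tests; about a fifth of its hits are not listed in these tables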;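 further: calls also rest on retests at 20 µM and on dose response follow-up; 0% = protein and probe with vehicle and 100% = probe without protein; strong numbers were not always called active; many hits fall short of the cut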
# Env fusion inh = inhibitors of HIV-1 Env-driven cell-cell fusion, primary screen, HeLa-JRFL effector, CEM21 target cells, luciferase | inhibition, % at 12.3 µM | 1.1% of 360,000 active;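 active means mean replicate inhibition score of at least 50 and every replicate individually at or above 50; inconclusive means only one of the two criteria met; inactive means mean below 50 and not all replicates reaching 50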;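 further: 0% = plate neutral controls and 100% = maraviroc near 300 nM; one replicate is shown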
# CSC inhib = cancer stem cell viability inhibitors, primary screen, luminescence; inhibition, % at 7.5 µM; cancer stem cell-like cells viability; 1.1% of 300,000 active;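 active means mean at 75% or more and at least half the replicates too; inconclusive means mean and replicates disagree; tested in HMLE shEcad cells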;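 further: 0% = median of negative and 100% = median of positive control wells; the first replicate is given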
# PABP FP inh = PABP poly(A) RNA binding inhibitors, primary screen, biochemical, fluorescence polarization, uHTS. Polyadenylate-binding protein 1 (Homo sapiens), P11940. inhibition, % at 35 µM. 1% of 290,000 active. AID 2014, 2009;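 active means 50% or more with normal probe brightness, or confirmed in later tests; inconclusive means above 50% with abnormal brightness, or retests that disagree; inactive means below 50% or failed in later tests; about a fifth of its hits are not listed in these tables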;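 further: calls also rest on retests at 20 µM and on dose response follow-up; controls were probe without protein and protein plus probe with vehicle; some compounds called inactive have numbers as strong as hits; many hits fall short of the cut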
# Target sequence (P11940 whole entry, looked up): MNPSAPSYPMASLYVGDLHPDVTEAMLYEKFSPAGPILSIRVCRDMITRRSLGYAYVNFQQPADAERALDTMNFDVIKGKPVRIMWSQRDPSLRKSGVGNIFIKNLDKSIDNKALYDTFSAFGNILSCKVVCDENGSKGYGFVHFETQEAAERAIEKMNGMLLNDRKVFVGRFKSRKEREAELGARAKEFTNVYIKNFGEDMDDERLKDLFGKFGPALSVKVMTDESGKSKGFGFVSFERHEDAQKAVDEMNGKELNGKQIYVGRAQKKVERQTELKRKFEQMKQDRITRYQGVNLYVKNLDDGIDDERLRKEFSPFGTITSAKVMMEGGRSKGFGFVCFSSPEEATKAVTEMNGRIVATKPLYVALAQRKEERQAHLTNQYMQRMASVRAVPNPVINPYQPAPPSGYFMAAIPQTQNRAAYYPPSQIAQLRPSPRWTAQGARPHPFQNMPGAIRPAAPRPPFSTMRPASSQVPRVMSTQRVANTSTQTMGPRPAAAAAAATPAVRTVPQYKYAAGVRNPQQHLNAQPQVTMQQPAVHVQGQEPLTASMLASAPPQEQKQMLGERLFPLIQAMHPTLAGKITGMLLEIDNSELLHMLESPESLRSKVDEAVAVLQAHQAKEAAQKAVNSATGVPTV
# Rce1 inhib = yeast Rce1p protease inhibitors, primary screen, biochemical, fluorescence, cell-free homogeneous | CAAX prenyl protease 2 (Saccharomyces cerevisiae (strain ATCC 204508 / S288c)), Q03530 | yeast membranes, quenched prenylated peptide cleavage fluorescence | 0.27% of 290,000 active | calls only;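 active means fall in fluorescence gain of 50% or more versus controls, with final raw signal at or below 3038400; inconclusive means same 50% fall but final raw signal above 3038400; inactive means fall in fluorescence gain under 50%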;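 further: plate controls were neutral control wells for no effect and wells lacking membranes for full effect; tested at 10 µM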
# Target sequence (Q03530 whole entry, looked up): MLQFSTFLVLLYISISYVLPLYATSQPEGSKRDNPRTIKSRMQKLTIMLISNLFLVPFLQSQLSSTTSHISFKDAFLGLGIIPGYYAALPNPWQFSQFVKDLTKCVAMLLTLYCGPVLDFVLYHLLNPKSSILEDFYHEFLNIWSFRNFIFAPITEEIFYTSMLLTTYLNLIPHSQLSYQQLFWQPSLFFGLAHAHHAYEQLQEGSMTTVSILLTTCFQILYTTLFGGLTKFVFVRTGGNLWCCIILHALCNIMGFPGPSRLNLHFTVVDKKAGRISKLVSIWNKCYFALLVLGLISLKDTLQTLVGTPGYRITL
# UUG fidelity = modulators of yeast start codon fidelity, primary screen, whole organism, S. cerevisiae, single point, plate reader; activity score, % at 18.7 µM; S. cerevisiae UUG-firefly luciferase reporter, luminescence/redox ratio; 0.13% of 350,000 active;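 active means replicate mean at a twofold rise or more, about +100% in these data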;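 further: firefly luciferase made from a UUG start codon reports start codon fidelity; reporter light over untreated wells divided by growth signal over untreated wells; some hits fall short of that in this replicate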
# MT1-MMP act inh RFP = also measured in MT1-MMP act inh; calls as there; RFP signal change, %; measured here: RFP expression control read;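 0 = vehicle wells; hits needed this value within 50% of zero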
# The depositor's hits bear a star; i = inactive; u = inconclusive; x = not tested or not shown.
# Start of the listing, in advance:
molecule	MT1-MMP act inh	MT1-MMP act inh RFP	eIF4H FP inh	Env fusion inh	CSC inhib	PABP FP inh	Rce1 inhib	UUG fidelity
O=C(CN1CCN(Cc2ccccc2)CC1)N1N=CCC1c1ccccc1 (stereo not given)	1	3	11	-10	-9	7	i	x
COc1cc(NC(=O)c2cccnc2)ccc1-c1cc2ccccc2oc1=O	x	x	-11	-1	8	10	i	x

# The whole of this part (from the top)
molecule	MT1-MMP act inh	MT1-MMP act inh RFP	eIF4H FP inh	Env fusion inh	CSC inhib	PABP FP inh	Rce1 inhib	UUG fidelity
O=C(CN1CCN(Cc2ccccc2)CC1)N1N=CCC1c1ccccc1 (stereo not given)	1	3	11	-10	-9	7	i	x
COc1cc(NC(=O)c2cccnc2)ccc1-c1cc2ccccc2oc1=O	x	x	-11	-1	8	10	i	x
CC1=NOC(=O)/C1=C\c1ccc(-c2ccc(Br)cc2C(=O)O)o1	-7	6	-1	5	-28	22	i	8
CCCCn1c(N)c(N(CC(C)C)C(=O)CCCc2cccs2)c(=O)[nH]c1=O	x	x	3	-5	0	-2	x	-6
OC[C@H]1O[C@@H](c2nc(-c3ccc(Br)cc3)no2)C[C@@H]1O	1	0	x	-38	x	x	x	-28
CCOC(=O)c1ccc(NC(=S)N2CCSC2c2ccc(OC)cc2)cc1 (stereo not given)	1	3	-4	0	-13	2	i	6
CCOc1ccc(N=c2scc(-c3ccc(OC)cc3)n2CCO)cc1	3	-15	-4	15	18	-9	i	-8
CC(C)CN1CN(Cc2ccco2)CNC1=S	2	7	-7	-30	-6	-14	i	-27
CSCCC(NS(=O)(=O)c1ccc(C)cc1)C(=O)NC1CCCCC1 (stereo not given)	-3	-4	-1	-110	-10	15	i	x
O=C(Nc1ccccc1)c1ccc2c(c1)OCO2	7	11	-8	x	3	8	i	-5
O=C(c1ccc2c(=O)n(Cc3ccccc3Cl)c(=S)[nH]c2c1)N1CCOCC1	0	1	-9	-7	-16	8	i	-11
Cc1cccc(NS(=O)(=O)c2ccc(C)c(C(=O)NCC(c3ccccc3)N(C)C)c2)c1 (stereo not given)	-1	1	x	16	x	x	x	2
O=C(Nc1ccc2c(c1)C(=O)c1ccccc1-2)c1ccccc1	8	-4	x	-17	x	x	x	-15
O=C(CN(CC1CCCO1)C(=O)CNS(=O)(=O)c1ccc(Cl)cc1)NCc1ccco1 (stereo not given)	4	3	3	3	-11	-2	i	-11
COC(=O)CN1C(=O)N/C(=C/c2ccccc2OC)C1=O	-1	2	-4	-1	2	0	i	x
NC1CCCCC1N=Cc1c(O)n(CCc2ccc(F)cc2)c(=O)[nH]c1=O (stereo not given)	3	2	-1	x	x	-7	i	6
C/C(CC(=O)Nc1cccc2c1CCCC2)=N\NC=O	9	1	-3	19	x	1	i	x
Cc1cc(OCC(=O)NCC2CCC(C(=O)O)CC2)c2c(C)c(C)c(=O)oc2c1 (stereo not given)	4	1	-6	x	-9	7	i	-13
CCOC1CS(=O)(=O)CC1OCC (stereo not given)	2	4	-1	2	-6	5	i	7
Cc1nn(-c2ccccc2)c2nc(-c3ccncc3)cc(C(=O)NCc3ccco3)c12	-11	-14	0	-30	6	-1	x	-13
O=C(Cn1cc([N+](=O)[O-])cn1)NCc1cc2ccccc2[nH]1	3	5	-7	11	-8	8	i	-8
CC(Nc1ccc(N2CCOCC2)cc1)C(=O)N1c2ccccc2CC1C (stereo not given)	-1	1	-13	-20	-11	8	i	x
CCc1ccc(CNC(=O)CN2C(=O)COc3ccccc32)cc1	0	1	0	x	4	2	i	-22
O=[N+]([O-])c1ccc(N/N=C/c2cccnc2)cc1	-13	-7	-23	2	21	-12	i	-15
Nc1nc(CSc2n[nH]c(-c3ccccc3)n2)nc(Nc2ccccc2)n1	1	-13	2	13	2	3	i	-9
CCCCCn1c(N)c(-c2nc3ccccc3s2)c2c([N+](=O)[O-])nn(C)c(=O)c21	3	7	-5	x	35	6	i	-14
O=[N+]([O-])c1ccc(Oc2ccc(F)cc2)c2ccncc12	-13	-12	15	x	24	2	i	-21
CC1CCCC(NC(=O)COC(=O)Cc2ccsc2)C1C (stereo not given)	4	10	8	-21	7	2	i	-7
COc1ccc2c(c1OC)C(=O)N1C2SC[C@H]1C(=O)NC1CC1 (stereo not given in full)	0	-3	-3	x	-1	-10	i	3
C=C(C)COc1ccc2c(C)c(CCC(=O)NC3CC3)c(=O)oc2c1	2	-10	-10	0	-25	14	i	x
O=C(OCc1cn([C@@H]2C[C@H](c3ccc(Cl)cc3)N(Cc3cccs3)C[C@H]2O)nn1)c1ccccc1	3	0	x	15	x	x	x	-25
CCOC(=O)c1c(NC(=O)c2ccc(C)cc2)sc2c1CC(C)(C)NC2(C)C	x	x	-4	x	12	-3	i	x
CC(C)NC(=S)Nc1ccc(Oc2ccccc2)cc1	3	-5	7	x	-1	-2	i	-33
O=C(Nc1ccc(Cl)cn1)c1cccc2c(Br)cccc12	-3	-5	-6	7	50	5	i	-13
Cc1cc(-c2ccc(/C=N/n3cnnc3)o2)ccc1Cl	-3	-2	4	-5	-5	0	i	x
Cc1noc(C)c1COc1cccc(C(=O)Nc2ccccc2)c1	5	1	x	-1	x	x	x	-19
CC(Nc1ccc2c(c1)OCCO2)C(=O)N1c2ccccc2CC1C (stereo not given)	1	-5	0	-2	-3	15	i	x
Cc1nc(-n2nnc(CO)c2CO)nc2c1CCC2	4	1	4	-4	-8	0	i	-3
CC1CN(C(=O)c2c(Br)cnn2C)CC(C)O1 (stereo not given)	-1	5	-11	x	-1	-7	i	x
COc1ccc(-n2ncc3c2CC(C)(C)CC3NC(=O)c2ccoc2C)cc1 (stereo not given)	0	6	-12	25	-7	-9	x	1
O=C(COc1ccc(Cl)cc1Cl)N/N=C/CCc1ccccc1	7	-1	-3	x	-10	0	i	-11
Cc1ccc(C2c3[nH]c4ccccc4c3C[C@H]3C(=O)N(c4ccccc4C(=O)N4CCC[C@@H]4C(=O)O)C(=O)N23)cc1 (stereo not given in full)	-4	2	10	x	-12	-4	i	-2
Nc1ncnc2c1cnn2C1CCCCC1	-1	1	1	7	-4	4	i	-12
CC(C)(C)OC(=O)C[C@H]1C/C=C\C[C@H](CC(=O)NCCO)C(=O)NC[C@H](c2ccccc2)OC1=O	3	6	x	10	x	x	x	0
Cc1ccc(NC(=S)/C(=C(\[O-])c2ccc(F)cc2)[n+]2ccccc2)cc1	-2	2	7	2	-6	-2	i	x
CCN(CC)C(=O)c1c2c(nc3ccccc13)-c1ccccc1CC2	-6	-5	-3	-45	7	-3	i	x
COc1ccc(F)c(CN2CCCC(CO)(Cc3cccc(Cl)c3)C2)c1 (stereo not given)	-2	-2	-7	3	3	0	i	-9
CCOC(=O)C(=O)Nc1ccc(S(=O)(=O)Nc2nccc(C)n2)cc1	0	2	x	-13	x	x	x	-28
CC[C@@]1(C(=O)OC)N[C@H](CN(C)C(=O)Nc2ccc(Cl)cc2)[C@@H]2C(=O)N(Cc3ccccc3)C(=O)[C@@H]21	-3	1	x	u	x	x	x	-16
CN(C)Cc1c(O)ccc2c(-c3ccccc3)cc(=O)oc12	-4	-1	-3	-4	-14	-4	i	x
O=C(c1n[nH]c2ccccc12)N1CCN(S(=O)(=O)c2ccccc2)CC1	1	0	x	11	x	x	x	-13
Cc1[nH]nc(SCC(=O)NC2CCCCC2)c1[N+](=O)[O-]	-2	3	-6	2	-8	1	i	x
O=C(COC(=O)C(O)c1ccccc1)NC12CC3CC(CC(C3)C1)C2 (stereo not given)	4	7	-5	x	x	-4	i	-5
Clc1ccc2[nH]cc(-c3nnnn3-c3ccccc3)c2c1	3	-9	-5	-256	47	-2	i	-38
O=C1CN(C(=O)c2cc([N+](=O)[O-])ccc2Cl)C(c2ccccc2)c2cc(F)ccc2N1 (stereo not given)	-2	-4	-16	-10	0	-20	i	x
CCC(c1nnnn1C(C)(C)C)N(Cc1ccco1)Cc1cc2cccc(C)c2[nH]c1=O (stereo not given)	-14	-10	-5	21	-8	4	i	-16
Cc1c(C)c2ccc(OCC(=O)N3CC[C@@]4(O)CCCC[C@H]4C3)cc2oc1=O	0	-3	-2	x	-2	-3	i	-3
COC(=O)c1cc(NC(=O)Nc2ccccc2OC)cc(C(=O)OC)c1	2	-2	-9	-86	-3	2	i	x
Cc1ccccc1-c1cc(=O)c2ccccc2o1	0	2	x	-47	38	x	x	-8
CCC(Sc1ncnc2sc(C)c(C)c12)C(=O)OC (stereo not given)	-7	1	13	7	-7	17	i	-5

# Additional structures follow.
molecule	MT1-MMP act inh	MT1-MMP act inh RFP	eIF4H FP inh	Env fusion inh	CSC inhib	PABP FP inh	Rce1 inhib	UUG fidelity
O=C(O)c1cc(-c2ccc3c(c2)OCO3)nc2ccc(Br)cc12	0	-1	10	-10	5	26	i	1
COCc1cc(CNC(=O)C2CCC(=O)N(Cc3cccc(OC)c3)C2)[nH]n1 (stereo not given)	0	4	-5	x	x	4	i	-17
Fc1ccc(OCCCCCn2ccnc2)cc1	1	-7	-3	1	21	-1	i	-23
Cc1c(NC(=O)CN2C(=O)NC(C)(c3ccc(Cl)cc3)C2=O)c(=O)n(-c2ccccc2)n1C (stereo not given)	-3	2	x	-7	-6	x	i	-4
CC(=O)OC[C@@H]1CN(Cc2ccccc2)C[C@H](n2cnc3c(NCc4ccc(F)cc4)ncnc32)O1	1	-5	x	-1	x	x	x	0
COc1cccc(N(C(=O)c2ccco2)c2nc(-c3sc(NC(=O)c4ccco4)nc3C)cs2)c1	4	6	0	44	12	12	i	-13
Cc1ccc(S(=O)(=O)N2CCOCC2)cc1C(=O)N1CCCCCC1	5	3	-10	x	-12	-2	i	-4
CCn1c(C2CC(=O)N(Cc3ccccc3)C2)nc2ccccc21 (stereo not given)	-7	-5	-7	x	-9	-1	i	-4
O=C(CN1CCOCC1)n1c2c(c3ccccc31)CCCC2	-2	-1	-5	10	x	-16	i	x
Cc1ccc(OCCCC(=O)NCc2ccco2)c(C)c1	x	x	-4	x	19	21	i	x
Cc1ccc(S(=O)(=O)N(C)CC(=O)OCC(=O)c2c(N)n(C)c(=O)n(C)c2=O)cc1	-3	-3	-2	-11	8	-12	i	x
COC(=O)c1cc(Sc2c(Cl)cccc2Cl)ccn1	-3	1	-9	-7	-8	-7	i	x
NS(=O)(=O)c1cccc(NC(=O)c2cccs2)c1	3	3	-3	8	-18	3	i	-16
C=CC12C=CC=CN1C(C(=O)OC)=C(C(=O)OC)C(C(=O)OC)=C2C(=O)OC (stereo not given)	1	3	8	x	-5	0	i	x
CCc1cccc(Oc2nn[nH]n2)c1	0	0	-4	x	1	6	i	-12
Cc1ccc(Sc2c(C(=O)Nc3ccc(F)cc3F)c(C(F)(F)F)nn2C)cc1	-6	-6	2	7	15	-9	i	-10
O=C(O)c1c(NC(=O)N2CCCC2)sc2c1CCCC2	1	2	-2	-14	2	1	i	x

# A portion of the library. The share of hits here may be higher or lower than overall.
